Compound activity deposited in PubChem BioAssay by National Center for Advancing Translational Sciences (NCATS).
Sfp inh: qHTS Assay for Inhibitors of Bacillus subtilis Sfp phosphopantetheinyl transferase (PPTase); 4'-phosphopantetheinyl transferase ffp (Bacillus subtilis), Q9F4F7; Biochemical Sfp PPTase activity, qHTS; Potency, µM, without a hit: max response, negative = inhibition, most hits filed as inhibitors; 3.5% of 310,000 active; AID 1490, 2009; active = well fitted inhibition curve with a large enough effect; inconclusive = small, poorly fitted or top-dose-only effect, or another doubt; inactive = no such curve, though single readings can be large or run the other way;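 note: the enzyme is Sfp with the accession as filed and its product quenches rhodamine fluorescence; potency is the fitted concentration of half-maximal effect; 0% = enzyme reaction without inhibitor and -100% = no enzyme wells; top concentration of the series not given in the record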
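With Hepes-Na pH 7.6 buffer containing 10 mM MgCl2, Sfp (15 nM) modified BHQ-2-YbbR (12.5 uM) using rhodamine-CoA (5 uM). Two reads 30 minutes apart at 525/598 nm yielded each well's rate.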
ClpP mod: qHTS Assay for Activators of ClpP | ATP-dependent Clp protease proteolytic subunit (Bacillus subtilis (strain 168)), P80244 | purified B. subtilis ClpP, FRET peptide cleavage, 20 min | Potency, µM (top dose mostly 57.5 µM), without a hit: at the top dose activity change, negative = active | 1.9% of 340,000 active | AID 651965, 2013; active = well fitted falling curve with a large enough effect; inconclusive = small, poorly fitted or top-dose-only effect; inactive = no such curve, though single readings can be large or run the other way; note: potency is the fitted concentration of half-maximal effect; the source files actives as falling curves though it sought activators and does not explain the sign; nearly all actives have a fitted effect of over 65% in size; many hits overshoot -100%
Target sequence (P80244 whole entry, looked up): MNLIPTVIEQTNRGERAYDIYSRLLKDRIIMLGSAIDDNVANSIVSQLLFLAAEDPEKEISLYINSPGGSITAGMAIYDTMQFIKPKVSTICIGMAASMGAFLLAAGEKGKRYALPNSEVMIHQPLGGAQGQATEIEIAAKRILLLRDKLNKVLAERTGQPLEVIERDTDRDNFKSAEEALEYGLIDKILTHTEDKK
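FRET quenching reversal measured ClpP activation: 10 microg/mL B. subtilis ClpP at pH 8 with the FRET-FV decapeptide, read at 430 nm after 320 nm excitation. The 20-min minus 0-min signal was scaled between DMSO/no-enzyme wells and ADEP (5.8 microM final).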
D2 ag: Beta-Arrestin HTS for Positive Allosteric Modulators of the Human D2 Dopamine Receptor: Agonists; 0.084% of 360,000 active; DiscoveRx PathHunter D2 beta-arrestin, luminescence, 90 min; 100% = 57 uM dopamine signal; activation, % (concentration not given with the values); D(2) dopamine receptor (Homo sapiens), P14416; in the data active = activation above about 40%; inconclusive = about 15% to 40%; inactive = below about 15%; note: compound concentration not given in the record; the text of the record calls up to 30% inactive
Target sequence (P14416 whole entry, looked up): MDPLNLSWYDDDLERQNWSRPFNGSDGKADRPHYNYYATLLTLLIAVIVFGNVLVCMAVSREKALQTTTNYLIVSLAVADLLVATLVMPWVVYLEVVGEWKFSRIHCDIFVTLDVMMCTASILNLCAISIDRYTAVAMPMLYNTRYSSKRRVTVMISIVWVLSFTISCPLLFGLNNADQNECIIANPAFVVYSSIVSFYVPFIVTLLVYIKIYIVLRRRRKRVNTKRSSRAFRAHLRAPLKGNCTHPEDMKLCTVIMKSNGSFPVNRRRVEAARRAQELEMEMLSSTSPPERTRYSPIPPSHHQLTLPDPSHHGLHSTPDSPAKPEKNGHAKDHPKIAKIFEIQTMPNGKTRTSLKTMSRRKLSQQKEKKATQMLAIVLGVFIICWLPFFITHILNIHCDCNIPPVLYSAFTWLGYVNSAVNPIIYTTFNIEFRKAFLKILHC
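DiscoveRx PathHunter D2 beta-arrestin cells (2,100/well) attached overnight, then compound-stimulated 90 min at 37 C in HBSS/10 mM HEPES/0.1% Tween-20 buffer; beta-galactosidase complementation read by luminescence after 1 h at ambient temperature. Dopamine 57 uM final (EC100) as control.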
PINK1 expr mod: A Quantitative High throughput Screen to Identify Chemical Modulators of PINK1 Expression; 0.2% of 410,000 active; Potency, µM (top dose mostly 76.6 µM), inactives show at the highest dose activation (PINK1 increase), hits mostly activators; PINK1 immunofluorescence, high-content cytometry, 24 h; active = well fitted activation curve with a large enough effect; inconclusive = small, poorly fitted or top-dose-only effect; inactive = flat fitted curve, though single readings scatter; cell line not stated here;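 note: potency is the fitted concentration of half-maximal effect; % of control where 0% means no effect; nearly all actives have a fitted effect of over 65% in size; a mitochondrial uncoupler was the plate control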
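Compound titrations (5 concentrations, 24 h) on a stable cell line; DMSO and CCCP controls. Endpoint: fixed-cell PINK1 immunofluorescence with mitochondrial, cell and nuclear markers, scanned by microplate cytometer.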
gsp antagonist: qHTS for Antagonists of gsp, the Etiologic Mutation Responsible for Fibrous Dysplasia/McCune-Albright Syndrome: qHTS; gsp-mutant cells, cAMP HTRF, 30 min; control for the full effect not named in the record; Potency, µM (doses to about 76.9 µM), for the others: at the top dose activity change, negative = inhibition, usual class: inhibitors; 0.4% of 340,000 active; active = falling curve of any shape with a large fitted effect; inconclusive = falling curve, mostly with a smaller effect; inactive = flat or rising curve; cell line not stated here;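 note: intracellular cAMP measured with PDE inhibitor Ro 20-1724 present during compound exposure; potency is the fitted concentration of half-maximal effect; % is set by controls: 0 for no effect and ±100 for the full control effect; nearly all actives have a fitted effect of over 65% in size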
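HTRF cAMP measurement after 30 min RT detection following 30 min, 37C compound treatment alongside […] (added as 300 uM solution) in G418-selected cells seeded at 2000/well and grown 16–24 h.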
gsp agonist: qHTS for Agonist of gsp, the Etiologic Mutation Responsible for Fibrous Dysplasia/McCune-Albright Syndrome: qHTS | Potency, µM (series often up to 76.9 µM), without a hit: at the highest dose activation (cAMP increase), hits mostly activators | 0.13% of 340,000 active | gsp mutant cells, cAMP HTRF, 30 min; control for the full effect not named in the record | AID 624287, 2012; active = well fitted activation curve with a large enough effect; inconclusive = small, poorly fitted or top-dose-only effect, or another doubt; inactive = no such curve, though single readings can be large or run the other way; cell line not stated here;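 note: phosphodiesterase inhibitor Ro 20-1724 added with compounds to block cAMP breakdown; potency is the fitted concentration of half-maximal effect; nearly all actives have a fitted effect of over 60% in size; about a fifth of the inactives were tested at one dose only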
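Cells stably selected in G418 were plated at 2000/well, grown 16-24 hr, then given compounds in DMSO with the PDE inhibitor […] (300 uM solution added) for 30 min at 37C; cAMP was read by HTRF.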
Menin-MLL FL inh: qHTS Assay for Inhibitors Targeting the Menin-MLL Interaction in MLL Related Leukemias: Competition With Fluorescein Labeled MLL-derived Peptide | Fluorescence polarization, fluorescein-MLL peptide displacement from menin | FP activity change, % at 61.4 µM | 290,000 tested, under 10 active | AID 1766, 2009; inconclusive = falling polarisation curve, or a change in total fluorescence; inactive = total fluorescence flat and polarisation flat or rising; no compound was filed as active; the % refers to the polarisation; negative = inhibition;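 note: % of control where 0% means no effect; inhibitors lower the polarisation; unlabelled MLL peptide was the positive control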
* = called active by the depositor; ? = inconclusive; nt = no result given; [ ] = remark or other dose.

Values in the order: Sfp inh, ClpP mod, D2 ag, PINK1 expr mod, gsp antagonist, gsp agonist, Menin-MLL FL inh
(1) COc1ccc(OC)c(NC(=S)N2CCC(C(O)(c3ccccc3)c3ccccc3)CC2)c1
→ 9%, 1.2%, -0.2, -1.2%, -22%, -10%, 5.0
(2) O=C(NCc1cccnc1)C1CC(=O)N(C2CCCCC2)C1 (configuration not stated)
→ -5%, 2.0%, -2.3, 0.7%[38.3 µM], 5%, -2%, -0.8
(3) COc1cc(CNn2cn[nH]c2=S)cc(Cl)c1OCc1ccccc1
→ 8%, -1.9%, 1.8, 2.0%[38.3 µM], -7%, -4%, 2.9
(4) COc1cccc(-n2cc(CNC(=O)C3CCC(=O)N(C4CC4)C3)cn2)c1 (configuration not stated)
→ 12%, nt, 7.6, -1.3%, 5%, -7%, -0.6
(5) O=C(CCN1C(=O)c2ccccc2C1=O)N1CCN(c2ccccc2)CC1
→ 6%, 0.8%, 0.5, -1.5%[38.3 µM], 0%, -5%, 0.7
(6) COc1ccc(NC(=O)CN(C)C(=O)c2cccc(S(=O)(=O)Nc3ccccc3Cl)c2)cc1
→ nt, -1.5%, -1.2, -0.8%, -4%, -49%[inhibitor], nt
(7) CCOCCCNC(=O)C(NC(=O)C1CCC(=O)N1)c1ccc(C)cc1 (configuration not stated)
→ 16%, -0.9%, 0.0, 0.3%, -2%, -14%, -1.6
(8) Nn1c(Cc2ccccc2F)nnc1SCCOc1ccc(Cl)cc1
→ -3%, -1.3%, -1.8, 0.0%, -3%, -96%[inhibitor], 5.3
(9) COc1ccc(CNc2ncncc2-c2ccc(N(C)C)cc2)c(OC)c1
→ 79µM*, nt, nt, 1.4%, nt, nt, -2.1
(10) CCC(C)NS(=O)(=O)c1ccc(S(=O)(=O)Nc2cc3c(cc2C(C)=O)OCO3)cc1 (configuration not stated)
→ 2%, -1.7%, -2.4, 1.0%[38.3 µM], -13%, -51%[inhibitor], 0.9
(11) O=C(CN1CCN(c2ccc(Cl)cc2)CC1)NCc1ccccc1
→ -3%, nt, -0.9, -1.1%, 1%, -25%, -0.8
(12) N#CC(Cc1cc2ccccc2n1S(=O)(=O)c1ccccc1)OCc1ccccc1 (configuration not stated)
→ nt, 0.1%, -1.6, -1.2%, 2%, nt, nt
(13) COc1ccc(C(=O)Nc2cc(-c3ccc(C)cc3)no2)cc1
→ 20%, -29%, -1.9, 7.7%, 6%, 20%, -6.8
(14) Cc1ccc(/C=N/N=C/c2ccc(C)cc2)cc1
→ 10%, 1.5%, -3.3, 5.2%, -3%, -8%, 0.4
(15) CCOc1ccc(N(CC(=O)Nc2ccc(OC)cc2)S(C)(=O)=O)cc1
→ 13%, -0.4%, 1.6, -2.9%, 4%, 12%, 0.1
(16) CC(CC(=O)Nc1ccc(Cl)c([N+](=O)[O-])c1)c1ccccc1 (configuration not stated)
→ 6%, -1.2%, 0.2, ?, ?, 9%, 2.4
(17) O=c1c2c(-c3ccc(Cl)cc3)csc2nc2n1CCC2
→ 14%, -2.7%, 1.0, 2.1%, -4%, -60%[inhibitor], 10
(18) Cc1c(Cl)cccc1NC(=S)NNS(=O)(=O)c1ccc([N+](=O)[O-])cc1
→ 16%, -0.4%, -1.9, 1.7%, 6%, -15%, nt
(19) CCOc1ccc(-n2c(=O)c3c(C)c(C(=O)N(C)C)sc3n(CC(=O)Nc3ccccc3F)c2=O)cc1
→ 0%, 2.1%, -0.7, 2.3%, -4%, 11%[15.4 µM], -0.1
(20) Cc1[nH]c2ccccc2c1/C=N/NC(=O)CNC(=O)c1ccc2c(c1)OCCO2
→ 10%, nt, -2.8, 3.6%, -9%, -9%, -1.7
(21) Cc1cc(C)c(OCCN2CCCC2)c(Cl)c1
→ -16%, -3.1%, 4.7, 0.1%, 10%, 2%, -0.6
(22) Cc1ccc(-c2nsc(SCC(=O)Nc3ccc4c(c3)OCO4)n2)cc1
→ -20%, 0.3%, 3.4, 7.6%, -12%, -1%, 0.1
(23) N#Cc1c(N)nc2c(c1-c1ccncc1)CCCCC2
→ 16%, 22µM*, -0.4, -4.8%[38.3 µM], 1%, 7%, 0.3
(24) Cc1ccc(S(=O)(=O)Nc2ccccc2-c2ccccc2)cc1
→ 3%, -0.7%, -1.8, 3.8%, 0%, 48%, 5.1
(25) COc1ccc(N2C(=O)c3ccccc3NC23CCCCC3)cc1
→ 19%, 28µM*, -0.3, 2.6%[38.3 µM], -5%, -40%[inhibitor], -6.0
(26) COc1cccc(/C=C/C(=O)OCC(=O)NCC2CCCO2)c1OC (configuration not stated)
→ -3%, -1.5%, -2.7, -0.4%, 7%, 0%, -2.8
(27) N#Cc1c(NC(=O)C(=O)NCCCN2CCOCC2)sc2c1CCCC2
→ 7%, 1.2%, -0.3, -1.0%, -13%, 3%, 4.5
(28) CN1c2cccc3cccc(c23)N(C)C1c1cccs1
→ -12%, 93%, 0.6, 2.2%, -2%, -1%, 5.1
(29) CCOC(=O)C1=CN(Cc2cccc(F)c2)S(=O)(=O)N(C)C1c1ccc(C(F)(F)F)cc1 (configuration not stated)
→ nt, -0.2%, 1.1, 2.3%, 3%, nt, nt
(30) CC1(c2cccc(Br)c2)NC(=O)NC1=O (configuration not stated)
→ 16%, nt, -3.3, 1.0%, 13%, -23%[15.4 µM], -0.7

Overlap with the part before: 2 compounds; new compounds follow.
Values in the order: Sfp inh, ClpP mod, D2 ag, PINK1 expr mod, gsp antagonist, gsp agonist, Menin-MLL FL inh
(29) CCOC(=O)C1=CN(Cc2cccc(F)c2)S(=O)(=O)N(C)C1c1ccc(C(F)(F)F)cc1 (configuration not stated)
→ nt, -0.2%, 1.1, 2.3%, 3%, nt, nt
(30) CC1(c2cccc(Br)c2)NC(=O)NC1=O (configuration not stated)
→ 16%, nt, -3.3, 1.0%, 13%, -23%[15.4 µM], -0.7
(31) Cc1cccc(NC(=S)N2CCOCC2)c1C
→ 71µM*, -0.8%, 3.0, 0.2%, 0%, ?, 4.6
(32) C/C(=N\NC(=O)Cc1ccccc1)c1ccc(Br)s1
→ 11%, 0.3%, 5.5, 3.2%, 1%, -7%, 0.6
(33) CCn1c(CN2CCCCC2)nc2cc(S(=O)(=O)N3CCCCC3)ccc21
→ nt, -2.5%, -3.6, -0.2%, 11µM*, -3%, nt
(34) CCOc1ncccc1C(=O)OCC(=O)c1c(N)n(C)c(=O)n(C)c1=O
→ -1%, -24%, 7.4, -0.9%, 4%, ?, 6.7
(35) Cc1cc(C(=O)CSc2nc(N)cc(N)n2)c(C)n1CCc1ccc(F)cc1
→ -20%, 1.1%, 1.2, -0.2%, ?, -49%, -0.2
(36) CCOC(=O)c1ccc(N2CCOCC2)c(NC(=O)COCC(=O)O)c1
→ -3%, -1.4%, -8.0, 1.9%, -2%, 7%[15.4 µM], -0.5
(37) Cc1ccc(C)c(N2C(=O)c3cc(N4CCOCC4)c([N+](=O)[O-])cc3C2=O)c1
→ -7%, -1.5%, 4.8, -0.5%, -4%, 1%, 1.7
(38) CC1Oc2ccccc2N(CC(=O)NCc2cccs2)C1=O (configuration not stated)
→ 4%, 0.1%, -3.6, 17%[38.3 µM], 0%, -63%[inhibitor], 5.2
(39) CCOC(=O)c1ccc(NC(=S)N2CCSC2c2ccc(Cl)cc2)cc1 (configuration not stated)
→ 16%, -24%, -4.1, ?, -2%, 23%, 0.8
(40) CCc1cc2c(=O)c(-c3cscn3)coc2cc1O
→ 5%, -20%, -4.9, -1.2%, -12%, 29%, -0.4
(41) Cn1ccnc1SCc1cn2cc(Br)ccc2n1
→ 5%, 0.1%, -1.2, 2.6%, 14%, -25%, 3.5
(42) COc1ccc(C2=CC(=O)C[C@H](COCc3ccccc3)N(C(=O)OC(C)(C)C)O2)cc1
→ nt, -2.1%, -3.6, 6.8%, -7%, nt, nt
(43) Cc1sc2c(c1C)c(=O)n(-c1ccccc1)c(=O)n2CC(=O)NCC1CCCO1 (configuration not stated)
→ 7%, 1.3%, 3.8, -0.1%, 2%, 4%, 1.6
(44) CN(C)C(=O)c1nc2ccc(Cl)cn2c1CNCc1ccccc1OC(F)(F)F
→ 10%, nt, -2.3, 0.2%, -18%, 29%, -1.3
(45) O=C(NC(Nc1nc2ccc([N+](=O)[O-])cc2s1)(C(F)(F)F)C(F)(F)F)c1cccnc1
→ 7%, -2.7%, -2.8, ?, 35µM*, ?, 4.2
(46) N=c1n(CC(=O)c2ccc(Br)cc2)c2ccccc2n1Cc1ccccc1
→ nt, -1.2%, -0.9, 0.3%, 4%, 5%, nt
(47) CC1CCCC(C)N1C(=O)COC(=O)c1ccc2c(c1)OCO2 (configuration not stated)
→ 6%, ?, 2.8, -0.3%, -4%, -1%, 3.9
(48) COCCN(C(=O)Cc1coc2cc(C)c(C)cc12)c1c(N)n(Cc2ccccc2)c(=O)[nH]c1=O
→ nt, -0.6%, 0.1, 0.0%, 15%, 15%, nt
(49) COc1cccc(C2=CC(c3ccc(OC)c(OC)c3)NC(=S)N2)c1 (configuration not stated)
→ 5%, -17%, -6.6, -0.3%, 6%, 14%, 4.1
(50) COc1ccccc1C(=O)COC(=O)C(NC(=O)Cc1ccccc1)C(C)C (configuration not stated)
→ nt, -5.6%, -8.0, 3.7%, -10%, -73%[inhibitor], nt
(51) CCC(C)N1CC(=O)N2Cc3[nH]c4ccccc4c3C[C@H]2C1=O (some centres not stated)
→ 2%, -2.1%, -0.4, 0.9%, -3%, 4%, -4.1
(52) Cn1cnc(S(=O)(=O)N2CCCCC2c2cc(C(=O)Nc3cccc(C#N)c3)no2)c1 (configuration not stated)
→ nt, -3.3%, -4.9, 1.1%, nt, nt, nt
